RE007 growth inh: qHTS Assay for Inhibitors of the HIV-1 protein Vpr | S. pombe RE007 Vpr strain, BacTiter-Glo ATP luminescence, 24 h; control for the full effect not named in the record | Potency, µM (highest dose often 92.2 µM), without a hit: top-dose activity change, negative = less growth | hit rate 0.21% among 360,000; active = well fitted falling curve with a large enough effect; inconclusive = small, poorly fitted or top-dose-only effect; inactive = no such curve, though single readings can be large or run the other way;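 further: on the % scale 0 is the no-effect control and ±100 the full control effect; nearly all actives have a fitted effect of over 50% in size; the assay follows cell death caused by Vpr and the record does not say whether a fall means rescue or toxicity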
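Fission yeast strain RE007, carrying one chromosomally integrated HIV-1 vpr copy, was seeded at OD 0.01 in PMG+AL medium with 23 nL pinned compound. After 24 h at 30 °C and 99% humidity, viability was read by BacTiter-Glo luminescence.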
StopGo reporter: High Throughput Screening for Foot and Mouth Disease Virus Antivirals. human cells with a luciferase reporter of 2A StopGo recoding; control for the full effect not named in the record. Potency, µM (series often up to 57.9 µM), inactives show at the top dose signal change, negative = less light. hit rate 1.2% among 410,000. AID 1159524, 2015; active = well fitted falling curve with a large enough effect; inconclusive = small, poorly fitted or top-dose-only effect; inactive = no such curve, though single readings can be large or run the other way; tested in HEK293T cells; further: on the % scale 0 is the no-effect control and ±100 the full control effect; nearly all actives have a fitted effect of over 45% in size; luciferase light after 4 h
Cruzain noTriton: qHTS Assay for Promiscuous and Specific Inhibitors of Cruzain (without detergent) | Cruzipain (Trypanosoma cruzi), P25779 | purified cruzain, Z-FR-AMC fluorescence, no detergent | Potency, µM, inactives show max response, negative = inhibition, hits mostly inhibitors | hit rate 2.3% among 200,000 | AID 1476, 2009;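 further: plate controls were enzyme without inhibitor for no effect and buffer without enzyme for full effect; nearly all actives have a fitted effect of over 40% in size; top concentration of the series not given in the record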
Target sequence (P25779 123-467 limits assumed): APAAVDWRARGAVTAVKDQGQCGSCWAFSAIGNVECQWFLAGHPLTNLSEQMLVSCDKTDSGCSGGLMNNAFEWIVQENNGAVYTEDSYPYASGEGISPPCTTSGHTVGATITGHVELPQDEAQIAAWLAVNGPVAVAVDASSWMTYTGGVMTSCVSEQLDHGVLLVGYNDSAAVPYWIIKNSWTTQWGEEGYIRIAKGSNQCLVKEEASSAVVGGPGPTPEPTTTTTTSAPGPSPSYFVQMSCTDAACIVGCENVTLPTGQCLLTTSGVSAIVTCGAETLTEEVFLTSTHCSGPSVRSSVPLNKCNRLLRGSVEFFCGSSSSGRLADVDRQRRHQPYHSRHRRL
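Purified cruzain at 1.5 nM, pre-incubated 15 min with compound at room temperature in 100 mM sodium acetate pH 5.5, 5 mM DTT, 0.00005% Triton X-100. Reaction started with 2 uM Z-FR-AMC; AMC fluorescence increase over 60 s gives rate.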
LASV entry inh: qHTS for Inhibitors of binding or entry into cells for Lassa Virus. Lassa virus pseudotype entry inhibition, cell reporter; control for the full effect not named in the record. Potency, µM (titrated, usually from 37.9 µM), for inactives: at the highest dose activity change, negative = inhibition, most hits filed as inhibitors. hit rate 1.2% among 300,000. AID 540256, 2011; active means well fitted inhibition curve with a large enough effect; inconclusive means small, poorly fitted or top-dose-only effect, or effect the other way; inactive means flat fitted curve, though single readings scatter; tested in HEK293 cells; further: on the % scale 0 is the no-effect control and ±100 the full control effect; nearly all actives have a fitted effect of over 50% in size; luciferase read-out
SARS PLpro yeast: qHTS of Yeast-based Assay for SARS-CoV PLP; S. cerevisiae expressing SARS-CoV PLpro, growth rescue; control for the full effect not named in the record; AID 485353, 2010; Potency, µM (highest dose often 32.9 µM), inactives show top-dose activity, positive = growth rescue; hit rate 0.19% among 330,000; active means well fitted rising curve with a large enough effect; inconclusive means small, poorly fitted or top-dose-only effect; inactive means no such curve, though single readings can be large or run the other way; further: 0% is about no effect; nearly all actives have a fitted effect of over 55% in size; growth read by luminescence after 48 h
Cruzain inh Det: qHTS Assay for Promiscuous and Specific Inhibitors of Cruzain (with detergent). Cruzipain (Trypanosoma cruzi), P25779. purified cruzain, Z-FR-AMC fluorescence, 0.01% Triton. Potency, µM, for inactives: max response, negative = inhibition, most hits filed as inhibitors. hit rate 0.43% among 200,000. AID 1478, 2009;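 further: plate controls were neutral wells for no effect and buffer without enzyme for full effect; nearly all actives have a fitted effect of over 40% in size; top concentration of the series not given in the record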
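Compounds were screened in titration against cruzain (1.5 nM) with 0.01% Triton X-100 to counter colloidal aggregation. Activity was the AMC fluorescence increase over 60 s after adding 2 uM Z-FR-AMC at pH 5.5.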
NS1 function inh: qHTS Assay for Inhibitors of Influenza NS1 Protein Function; S. cerevisiae slowed by influenza A NS1, growth recovery by OD600; Potency, µM (doses to about 46.1 µM), for the others: at the highest dose activity, positive = more growth; hit rate 0.4% among 270,000; AID 2326, 2010; active means well fitted rising curve with a large enough effect; inconclusive means small, poorly fitted or top-dose-only effect; inactive means no such curve, though single readings can be large or run the other way; further: nearly all actives have a fitted effect of over 50% in size
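Compounds were scored for reversing the slow growth caused by influenza A NS1 in S. cerevisiae, measured by optical density at 600 nm. Assay medium contained 2% galactose at pH 6.0; NS1-free yeast of the same strain were the positive control.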
MARV entry inh: qHTS for inhibitors of binding or entry into cells for Marburg Virus; Marburg virus pseudotyped entry inhibition, cell reporter; control for the full effect not named in the record; about a third of the inactives were read at about 46 µM; Potency, µM (highest dose often 37.8 µM), without a hit: at the highest dose activity change, negative = inhibition, usual class: inhibitors; hit rate 1.8% among 300,000; AID 540276, 2011; active = well fitted inhibition curve with a large enough effect; inconclusive = small, poorly fitted or top-dose-only effect, or effect the other way; inactive = flat fitted curve, though single readings scatter; tested in HEK293 cells; about a fifth of its hits are not listed in these tables; further: on the % scale 0 is the no-effect control and ±100 the full control effect; luciferase read-out
Starred values were filed as active, the others as inactive; ? = inconclusive; . = no result given; & = joins results of further samples; [ ] = dose if it differs, or a comment. Unless noted, the call rests on the fitted dose curve; in most records, active means well fitted curve in the direction sought with a large enough effect; inconclusive means small, poorly fitted or top-dose-only effect, or another doubt; inactive means no such curve, though single readings can be large; an effect the other way counts as inactive or inconclusive. Potency means the concentration at half of the fitted maximal effect. Random draw from the library, and some 4.5% of all compounds hit somewhere here.

The first 6 entries as a preview:
SMILES	RE007 growth inh	StopGo reporter	Cruzain noTriton	LASV entry inh	SARS PLpro yeast	Cruzain inh Det	NS1 function inh	MARV entry inh
Cc1cc(Cl)cc(C)c1OCCCCn1ccnc1	-14%	-25%	7%	-11%	-1%	2.4%	-82%	-18%
O=C(Cn1nc(-c2ccccc2)ccc1=O)Nc1ccc(N2CCN(C(=O)c3ccccc3)CC2)cc1	4%	-30%	-16%	-24%	-7%	-3.7%	10%	-6%
COc1ccc(N2CCN(C3CCCN(S(=O)(=O)c4ccccc4)C3)CC2)cc1 (stereo not given)	1%	-1%	.	-12%	4%	.	24%	0%
Cc1cc(C)cc(NC(=O)c2ccc(S(=O)(=O)NCc3cccnc3)cc2)c1	5%	-12%	.	?	1%	.	-3%	8%[46.1 µM]
Cc1cccc(OCc2nnc(SCc3nc4ccccc4c(=O)[nH]3)o2)c1	-5%	-8%	-17%	-3%	4%	-1.0%	1%	-5%
COC(=O)c1nc(NC(=O)c2cc(OC)c(OC)c(OC)c2)n[nH]1	4%	-28%	.	15%[46.1 µM]	-1%	.	5%	4%[46.1 µM]

The list itself, repeating the preview:
SMILES	RE007 growth inh	StopGo reporter	Cruzain noTriton	LASV entry inh	SARS PLpro yeast	Cruzain inh Det	NS1 function inh	MARV entry inh
Cc1cc(Cl)cc(C)c1OCCCCn1ccnc1	-14%	-25%	7%	-11%	-1%	2.4%	-82%	-18%
O=C(Cn1nc(-c2ccccc2)ccc1=O)Nc1ccc(N2CCN(C(=O)c3ccccc3)CC2)cc1	4%	-30%	-16%	-24%	-7%	-3.7%	10%	-6%
COc1ccc(N2CCN(C3CCCN(S(=O)(=O)c4ccccc4)C3)CC2)cc1 (stereo not given)	1%	-1%	.	-12%	4%	.	24%	0%
Cc1cc(C)cc(NC(=O)c2ccc(S(=O)(=O)NCc3cccnc3)cc2)c1	5%	-12%	.	?	1%	.	-3%	8%[46.1 µM]
Cc1cccc(OCc2nnc(SCc3nc4ccccc4c(=O)[nH]3)o2)c1	-5%	-8%	-17%	-3%	4%	-1.0%	1%	-5%
COC(=O)c1nc(NC(=O)c2cc(OC)c(OC)c(OC)c2)n[nH]1	4%	-28%	.	15%[46.1 µM]	-1%	.	5%	4%[46.1 µM]
O=C(O)C1CC(c2cccc(Br)c2)=NO1 (stereo not given)	5%	.	3%	21%	-5%	0.5%	-2%	3%
O=C(c1cc(-c2cccc(O)c2)on1)N1CCN(C(c2ccccc2)c2ccccc2)CC1	20%	?	-22%	.	-13%	-2.7%	-139%	.
CC(C)(C)c1nc2ccc(NS(=O)(=O)c3ccc(F)c(F)c3F)cc2[nH]1	-13%	-10%	.	-12%	2%	.	-7%	0%[46.1 µM]
Cc1ccccc1-c1nnn(CC(=O)c2ccc(S(=O)(=O)N3CCCC3)cc2)n1	-1%	?	-28%	?	1%	-0.7%	-24%	?
COc1cc(OC)cc(OC(=O)C2CCN(C(=O)c3ccc(F)cc3)CC2)c1	?	-12%	.	-5%	-3%	.	.	12%
COc1ccc(NC(=O)Cn2nnc3sc4c(c3c2=O)CC(C)(C)OC4)cc1	10%	-22%	.	.	0%	.	3%	.
Cn1ncc([N+](=O)[O-])c1C(=O)N/N=C/c1ccc(F)cc1	-21%	17%	-2%	2%	21%	-2.1%	7%	11%
Cc1ccccc1CN1CCN(c2nc3ccccc3s2)CC1	-21%	-6%	.	.	-2%	.	-3%	.
O=C(CSc1ncccn1)N1CCc2ccccc2C1	12%	27%	.	.	0%	.	8%	.
CCOC(=O)c1sc(NC(=O)/C=C/c2ccccc2)nc1C	-7%	13%	25µM*	-14%	16%	-1.1%	3%	-1%
COc1cccc(-c2cc(C(F)(F)F)n3nc(N)nc3n2)c1	5%	-17%	24%	-15%	-1%	-8.4%	-6%	3%
CCOC(=O)c1c(C)oc2nc(C)nc(Nc3cc(C)cc(C)c3)c12	.	-13%	-3%	?	.	-0.3%	.	.
O=C(c1ccco1)N1CCN(C(=O)C(c2ccccc2)c2ccccc2)CC1	14%	-20%	5%	-18%	29%	-2.3%	0%	?
Cc1ccc(C)c2sc(N3CCN(C(=O)C(C)(C)C)CC3)nc12	.	-12%	5%	-3%[46.1 µM]	.	-2.7%	.	.
COc1cc(OC)cc(C(=O)Nc2nc(CC(=O)NCc3ccc(F)cc3)cs2)c1	23%	-16%	.	?	0%	.	.	?
COc1cc(NC(=O)Nc2cccc([N+](=O)[O-])c2)cc(OC)c1	10%	-9%	.	4%	-1%	.	9%	-21%[46.1 µM]
COc1ccc(N=C2CC(C)(C)CC(=O)/C2=C(/O)c2ccccc2)cc1	-14%	-22%	.	3%[46.1 µM]	0%	.	1%	24%[46.1 µM]
O=C(O)C(Cc1ccccc1)N1C(=O)C2CCCCC2C1=O (stereo not given)	1%	-8%	.	6%[46.1 µM]	?	.	3%	18%[46.1 µM]
Cc1cccc(Cn2c(COc3ccccc3)nc3ccccc32)c1	.	-22%	-7%	-1%[46.1 µM]	.	-9.4%	.	?

Following part:
SMILES	RE007 growth inh	StopGo reporter	Cruzain noTriton	LASV entry inh	SARS PLpro yeast	Cruzain inh Det	NS1 function inh	MARV entry inh
CCN(CC)S(=O)(=O)c1ccc(NC(=O)C2COc3ccccc3O2)cc1 (stereo not given)	4%	-10%	1%	-20%	7%	-3.5%	-34%	2%
N#C/C(=C\c1ccc(Cl)cc1)c1nc(-c2ccco2)cs1	1%	18%	?	-5%	2%	-10%	3%	0%
OC(COc1ccccc1)CN1CCCCC1 (stereo not given)	4%	-6%	.	-9%	.	.	.	6%
COc1ccc(C2c3[nH]c4ccccc4c3CCN2Cc2ccoc2)c(F)c1 (stereo not given)	-12%	-2%	.	.	-1%	.	-4%	.
O=C(C1CCCC1)N1CCC(CC2CC(c3ccc(Cl)cc3)=NO2)(C(=O)NCC2CCCCC2)CC1 (stereo not given)	-4%	-6%	.	.	-10%	.	24%	.
COc1ccc(/C=C/c2nnc(NC(=O)c3ccco3)s2)cc1	-15%	38%[activator]	.	.	-3%	.	-3%	.
O=c1c(-c2nnc(SCc3ccc(Cl)cc3Cl)o2)cccn1Cc1ccccc1	10%	-30%	-2%	7%	-1%	-15%	-31%	?
O=C(/C=C/c1ccccc1)NC(=S)NNC(=O)c1cnccn1	?	3%	.	7.9µM*	-14%	.	-69%	?
O=C(Cn1nnc(-c2ccc(S(=O)(=O)N3CCCC3)cc2)n1)NCC1CCCO1 (stereo not given)	-3%	-2%	-11%	2%	5%	-0.2%	-3%	1%&13%
CC(C)CN(C(=O)COc1ccc2ccc(=O)oc2c1)C1CCS(=O)(=O)C1 (stereo not given)	1%	16%	.	.	1%	.	-5%	.
COc1ccccc1S(=O)Cc1ccc(C(=O)NC2CCCC2)o1 (stereo not given)	3%	-18%	-5%	.	-3%	3.6%	7%	.
O=C(NCCC(=O)N1CCc2ccccc21)c1ccco1	1%	58%[activator]	.	?	-1%	.	5%	19%[46.1 µM]
Cc1ccc(C)c(NC(=O)CCC(=O)NNC(=O)c2cccc([N+](=O)[O-])c2)c1	5%	6%	-7%	15%	6%	5.0%	15%	7%
Cc1cc2[nH]c3ccccc3c2c(C)n1	-1%	-27%	-18%	-6%	2%	-2.7%	3%	?
O=C(c1cccnc1Cl)N(Cc1ccccc1)Cc1ccccc1	6%	-21%	.	.	-8%	.	.	7%[46.1 µM]
CCOC(=O)c1c(S(=O)(=O)N2CCCC(C(=O)NCc3cccc(C)c3)C2)c(C)n(C)c1C (stereo not given)	.	-22%	-7%	9%[46.1 µM]	.	2.7%	.	.
CC/C(=N\Nc1ccccc1[N+](=O)[O-])c1ccc(O)cc1	-7%	-9%	.	?	-2%	.	-6%	?
CC1CCCN(C(=O)N2c3ccccc3Sc3ccccc32)C1 (stereo not given)	9%	-30%	0%	?	-28%	-3.8%	8%	?
CCC(C)C(=O)Nn1c(C2CC2)nc2cc(OC)c(OC)cc2c1=O (stereo not given)	-8%	-16%	.	-6%	0%	.	.	-18%
CCC(=O)Nc1ccc(C(=O)Nc2ccc3c(c2)C(=O)N(CC2CCCO2)C3=O)cc1 (stereo not given)	21%	0%	?	-3%	2%	-4.1%	?	?
c1ccc2nc(-c3nc4ccccc4o3)ccc2c1	?	-93%	?	2.3µM*	-23%	-15%	-5%	?
CC(C)c1ccc(C2CC(=O)c3cnc(N4CCc5ccccc5C4)nc3C2)cc1 (stereo not given)	2%	9%	-21%	-14%	14%	-4.0%	6%	12%
CCN(CC)CCN1C(=O)C(=O)/C(=C(/O)c2ccc(S(=O)(=O)N3CCOCC3)cc2)C1c1ccc(C(C)(C)C)cc1 (stereo not given)	-5%	12%	.	14%	0%	.	5%	?
CCN(CC)S(=O)(=O)c1ccc(C(=O)OCC(=O)N2CCOCC2)cc1	0%	-7%	.	-12%	2%	.	4%	-4%[46.1 µM]
CC1(OC(=O)CCc2ccccc2)C(=O)C=C2C=C3CCCN3C=C2C1=O (stereo not given)	-1%	-13%	.	.	1%	.	4%	.
CCOC(=O)c1ccccc1NC1(c2ccc(OC)cc2)C(=O)c2ccccc2C1=O	.	-26%	?	14%[46.1 µM]	.	-7.9%	.	.
Cc1ccc(-c2nc(CS(=O)(=O)CC(=O)NCCCN3CCOCC3)c(C)o2)cc1	-4%	15%	.	?	2%	.	12%	-25%[46.1 µM]
CN1CCN(C(=O)C(=O)Nc2c3c(nn2-c2ccc(F)cc2)CSC3)CC1	.	-17%	1%	5%[46.1 µM]	.	2.1%	.	.

High-throughput results as filed in PubChem BioAssay.
